# Source: PubChem (several laboratories)
# Bead autofluor – counter-screen for toxin protease inhibitors: compound fluorescence; 3.1% of 360,000 active; compound autofluorescence counterscreen, microsphere flow cytometry; stronger effect = higher value; fluorescence intensity (test concentration not listed);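 active means at least 3 SD above the mean of all compounds, about 16000 in these data; inconclusive means too few beads counted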;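 further: 100 nL of 1 mM stock went into each well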
# BJeLR lethal – BJeLR cell viability loss. inhibition, % (no concentration beside the values). AID 1554. BJeLR (HRASV12) viability, CellTiter-Glo ATP luminescence, 48 h; reference of the scale not given here. 0.17% of 300,000 active;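 active means replicate mean above 50%; inconclusive means above 50% but judged a plate artefact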;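 further: 50 nL library stock added to about 25 µL; numbers are from one replicate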
# Sa RN4220 lethal – S. aureus RN4220 growth inhibition; inhibition, % (concentration not given with the values); 0.33% of 330,000 active; OD600, 16 h;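 active means z-score of -3 or lower and OD600 up to 0.18 on both plates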;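 further: plate controls were untreated cells for no effect and reference antibiotic for full effect; stock transfer was 100 nL into about 80 µL; one replicate is shown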
# Mtb hypoxia rep – Mtb hypoxia fluorescent reporter inhibition; M. tuberculosis hypoxia-regulated fluorescent reporter, fluorescence; fluorescence inhibition, % (concentration not given with the values); 0.1% of 300,000 active; AID 1159583;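 active means 35 to 45% if threefold the growth effect, above 45% if 1.5-fold the growth effect; inactive means the rest, general growth blockers included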;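 further: wells of about 50 µL received 100 nL stock; 0% = vehicle wells and 100% = reference inhibitor wells; whole bacteria with a GFP reporter of the hypoxia response; strong numbers were not always called active; many hits fall short of the cut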
# Sa ugtP lethal – kills S. aureus RN4220 lacking UgtP; AID 1259309; growth inhibition, % (test concentration not listed); 0.54% of 330,000 active; S. aureus RN4220 ugtP deletion, OD600 growth, 16 h; some inactives read as strong as hits;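 active means z-score under -3 and OD600 up to 0.15 on both plates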;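 further: plate controls were untreated wells for no effect and antibiotic for full effect; wells of about 80 µL received 100 nL stock; the first replicate is given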
# PrP UTR inh – suppresses PrP 5' UTR mRNA reporter expression; AID 488862; inhibition, % (no concentration beside the values); cell-based PrP 5' UTR mRNA reporter, plate reader; 0.35% of 340,000 active;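 active means every replicate at 50% or more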;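 further: 0 = median of the neutral control wells; tested in H4 reporter cells; numbers are from one replicate; inactives centre near -14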
# Mtb hypoxia rep growth – also measured in Mtb hypoxia rep; calls as there; growth inhibition, %; measured here: M. tuberculosis growth (absorbance);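 0% = vehicle and 100% = reference antibiotic; read after six days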
# Numbers without * were called inactive; ? = inconclusive; / = not tested or not shown.
SMILES,Bead autofluor,BJeLR lethal,Sa RN4220 lethal,Mtb hypoxia rep,Mtb hypoxia rep growth,Sa ugtP lethal,PrP UTR inh
CC(C)N(C(=O)[C@H]1C[C@H](CC(=O)NCCCN(C)C)C(=O)N2CCc3c([nH]c4cc(CCC(=O)N(C)C)ccc34)[C@]12C)C(C)C,3864,/,3.5,-6,6,7,-15
O=c1oc2ccccc2c2c1nnn2CCO,4854,15,5.7,8,7,4,-12
CCCC(=O)NC(c1ccc(OC)cc1)c1ccc2cccnc2c1O (configuration not stated),3784,31,8.6,-6,4,5,16
COc1cccc(NC(=O)Nc2cccn(Cc3ccc(C)cc3)c2=O)c1,4413,3,/,/,/,/,-19
O=C(NC1CCCCC1)N(CCO)Cc1cc2cc3c(cc2[nH]c1=O)OCCO3,10706,-7,2.1,15,6,3,-10
CC1CCCN(C2(O)C(=O)Nc3ccc([N+](=O)[O-])cc32)C1 (configuration not stated),5022,3,5.6,13,12,1,-19
O=C(/C=C/c1ccco1)NC(=S)Nc1cccc(C(=O)O)c1,3897,2,0.1,-2,7,8,-5
COc1ccc(-c2nnn(CC(=O)N(CC(=O)NC3CCCC3)Cc3ccco3)n2)cc1OC,4060,0,10,0,12,4,-15
COc1ccc(S(=O)(=O)N2CCN(C(c3ccccc3)c3ccccc3)CC2)cc1NC(C)=O,7435,-6,2.6,12,11,0,3
CN(C)c1ccc(/C=C2/C=C(c3ccc4c(c3)CCCC4)OC2=O)cc1,4443,-4,1.4,17,14,3,-59
CCN1CCN(Cc2ccc(NC(=O)Nc3ccc(OC)cc3)cc2)CC1,5102,-1,-2.9,/,/,7,-28
Cc1ccc(SCCNC(=O)CN2C(=O)c3ccccc3S2(=O)=O)cc1,/,4,-3.0,/,/,-2,-9
COc1cc(NC(=O)CS(=O)(=O)c2ccc(C)cc2)cc(OC)c1OC,5921,/,2.4,/,/,2,-17
O=[N+]([O-])c1cccc(/C=N/Nc2nc(N3CCOCC3)nc(N3CCOCC3)n2)c1,2589,-2,/,/,/,/,-9
CCS(=O)(=O)c1ccc2oc(SCC(=O)NCCc3ccc(OC)cc3)nc2c1,4317,0,5.9,-7,8,0,-16
CCOC(=O)c1cc(-c2cccs2)[nH]n1,6179,-1,-3.5,-1,0,-12,-32
S=C(Nc1ccccc1Cl)NC1CCN(Cc2ccccc2)CC1,1977,6,1.7,12,6,13,-17
CC(C)(C)NCc1cc2ccccc2[nH]c1=O,3063,1,-5.9,7,14,-1,-9
Clc1nnc(NN=Cc2ccccc2)c2ccccc12,/,/,10,15,-5,-6,/
CN(C)N=C1c2cc(S(=O)(=O)N3CCOCC3)ccc2-c2ccc(S(=O)(=O)N3CCOCC3)cc21,2453,-3,9.0,1,-3,2,-19
COc1ccc(C(C)=O)cc1CSc1ccccn1,5336,-1,4.0,-1,-4,3,-14
O=c1cc(CO)oc(C(Nc2cccc([N+](=O)[O-])c2)c2ccccn2)c1O (configuration not stated),6178,6,2.1,8,10,6,-8
CC(Cc1ccccn1)NC(=O)c1ccc(OC2CCN(Cc3ccccn3)CC2)cc1 (configuration not stated),4294,-7,2.0,11,7,4,-12
Cc1nc2cc(C(=O)NCCN3CCOCC3)ccc2n1-c1ccc(F)cc1F,5144,-6,-0.8,/,/,-1,-14
O=C(Nc1nc2ccccc2c(=O)[nH]1)c1ccccc1SCc1ccccc1,4603,3,8.0,2,14,-1,-29
COc1ccc(C2=C3C(=O)OCC3Cc3ncn(Cc4ccccc4)c32)cc1 (configuration not stated),3714,/,6.9,11,6,2,-22
CCOc1ccc(CCNC(=O)COC(=O)COc2cc(C)cc(C)c2)cc1OCC,/,-4,2.7,2,-2,2,-21
CCOC(=O)c1cccc(NC(=O)c2cnc3ccccc3n2)c1,4665,-8,4.2,/,/,0,-28
COC(=O)c1sccc1S(=O)(=O)Nc1ccc(S(N)(=O)=O)cc1,3812,4,4.4,9,3,19,-15
N#Cc1cc2c(nc1SCC(=O)Nc1sc3c(c1C#N)CCC3)CCCC2,3499,-6,0.1,/,/,-11,-49
COc1ccc(CN2CCN(Cc3ccccc3)C(CCO)C2)cc1OC (configuration not stated),2599,-9,0.8,6,-1,7,3
CCN(CC(=O)Nc1cc(Cl)ccc1C)C(=O)C1CCCCC1,4368,-5,/,/,/,/,-17
CC(NC(=O)c1nc[nH]c1C(=O)OCc1ccccc1)c1ccccc1 (configuration not stated),/,/,-1.0,3,13,-16,/
Cc1cccc(NC(=O)CCSc2nc(C)cc(C)n2)c1,2621,2,0.3,7,-3,8,-7
CCCCn1c(SCC(=O)Nc2cc(C(F)(F)F)cc(C(F)(F)F)c2)nnc1C(CC)N(C)C (configuration not stated),7850,13,2.3,3,2,-28,-1
O=C(NN=Cc1ccccc1)c1ccc(N2CCOCC2)c([N+](=O)[O-])c1,/,/,4.0,-9,-1,6,/
CCOc1cccc2sc(Nc3nc4ccc(NC(C)=O)cc4s3)nc12,2492,-9,2.6,10,8,5,-28
O=C(O)c1ccc2[nH]c3c(c2c1)CSCC3,20934*,-8,2.0,-1,4,3,-3
Cc1cccc(C=CC(=O)c2ccc([N+](=O)[O-])o2)c1,/,/,101*,/,/,100*,/
CC(C)(C)C(=O)Nc1nnc(SCc2cccc(F)c2)s1,4013,-7,14,2,0,-13,-55
O=C(Cc1ccccc1)N1CCN(C(=O)c2ccc([N+](=O)[O-])cc2)CC1,2513,-1,5.8,9,8,-5,-27
c1cncc(CSc2ccc(-c3cccnc3)nn2)c1,3114,-12,6.7,11,6,4,-6
CC1=Nc2ccccc2N=C(NC(=O)/C=C/C(=O)O)C1c1ccccc1 (configuration not stated),4090,0,2.2,2,4,11,-22
Cc1ccccc1-c1nc(CS(=O)(=O)CC(=O)NCc2ccc(F)cc2)c(C)o1,5508,3,7.0,3,4,-1,0
O=C(NCCN1CCOCC1)c1cn(CCc2ccccc2)nn1,4192,-2,-1.3,/,/,11,-28
O=C(O)CN1C(=O)c2ccc(Oc3ccc4c(c3)C(=O)N(CC(=O)O)C4=O)cc2C1=O,5860,7,-0.8,4,-5,-7,-1
Cc1cc(C(=O)Nc2ccc3c(c2)OCCO3)co1,5217,-5,4.4,11,18,7,-77
O=C(O)c1ccccc1Nc1ccc(OC(F)F)cc1,4131,6,7.2,5,11,15,-34
c1ccc(-c2ccc(OCCOCCn3cncn3)cc2)cc1,4623,-2,2.1,/,/,-3,-63
CN(C(=O)c1cccc(NC(=O)Cc2ccc(NC(=O)C3CCCN(C(=O)CCc4ccccc4)C3)cc2)c1)C1CCC1 (configuration not stated),3066,/,4.8,-6,2,2,-16
# Continuation:
SMILES,Bead autofluor,BJeLR lethal,Sa RN4220 lethal,Mtb hypoxia rep,Mtb hypoxia rep growth,Sa ugtP lethal,PrP UTR inh
CC(C)N1CCN(Cc2ccc(C#CC(C)(C)O)s2)CC1CCO (configuration not stated),3442,-7,-2.4,-7,6,-3,-1
COc1ccc(NC(=O)Nc2cccs2)cn1,3584,-3,-0.7,0,5,8,/
COc1ccc(N2C(=O)CCC(C(=O)NCc3ccccn3)C2c2ccc(F)cc2)cc1 (configuration not stated),4020,2,3.7,18,7,1,-14
CC1CN(C(C)CO)C(=O)c2cccc(NC(=O)C3CC3)c2OC1CN(C)Cc1ccccc1 (configuration not stated),/,/,7.9,6,12,2,/
COC(=O)c1ccc(NC(=O)c2cccc(Cl)c2)o1,23122*,-1,1.2,7,8,0,-26
COc1ccccc1Cn1c(=S)[nH]c2cc(C(=O)NCC3CCCO3)ccc2c1=O (configuration not stated),4471,3,-1.7,-6,-2,3,-1
CCCCNS(=O)(=O)NC(=O)C1=C(N2CCCC2)COC1=O,3778,/,3.9,9,11,-11,-2
CCNC(=S)NNC(=O)CCn1c2ccccc2c2ccccc21,4464,11,-3.4,/,/,7,-21
CCCCN1CCC2C=CCC(C(=O)N3CCOCC3)C2C1=O (configuration not stated),/,/,5.6,14,13,7,/
O=C(CCC(=O)N1CCN(c2ccc(F)cc2)CC1)c1ccccc1,5904,-4,2.9,5,4,8,-19
CCOc1ccc(CN(C)C(=O)CNC(=O)c2ccc3ccccc3c2)cc1OC,4121,3,-3.9,11,10,6,-14
COc1cccc(-c2ocnc2C(=O)Nc2ccc3c(c2)CCC3)c1,5803,3,0.2,-1,-7,8,-32
CC(NC(=O)c1cc2c(cc1Cl)N1CCCCCC1=NS2(=O)=O)c1ccc(S(N)(=O)=O)cc1 (configuration not stated),?,3,3.0,2,4,0,-8
CCCN(CC(=O)Nc1ccccc1OC)C(=O)CCC(=O)c1ccc(F)cc1,?,-8,/,/,/,/,-6
Cc1ccc(CNC(=O)CN(C(=O)C2(C)CC(=O)N=C3C=CC=CN32)c2ccccc2F)cc1 (configuration not stated),3599,10,4.1,-9,0,5,-16
O=C(NCc1nnc(SCC(=O)N2CCCC2)o1)c1c(F)cccc1Cl,2671,12,1.6,/,/,7,-25
Cc1nonc1NC(=O)CSc1nnc(-c2ccoc2C)n1CC(C)C,2578,6,2.8,/,/,4,-10
COc1cccc(-c2nn(C)c3sc(C(=O)NCc4ccc(C)o4)cc23)c1,3110,-10,-2.3,/,/,-7,-22
COc1ccc(OC)c(NC(=O)COC(=O)CCNc2ccccc2OC)c1,2840,/,-2.4,0,1,-6,-21
CCCNc1nc(=S)n(-c2ccccc2)c(C)c1C(C)=O,2811,-13,-0.4,4,2,7,-46

# 12 compounds from above, ordered by count of non-hydrogen atoms, lowest first.
SMILES,Bead autofluor,BJeLR lethal,Sa RN4220 lethal,Mtb hypoxia rep,Mtb hypoxia rep growth,Sa ugtP lethal,PrP UTR inh
CCCNc1nc(=S)n(-c2ccccc2)c(C)c1C(C)=O,2811,-13,-0.4,4,2,7,-46
CCCCNS(=O)(=O)NC(=O)C1=C(N2CCCC2)COC1=O,3778,/,3.9,9,11,-11,-2
CCCCN1CCC2C=CCC(C(=O)N3CCOCC3)C2C1=O (configuration not stated),/,/,5.6,14,13,7,/
CCNC(=S)NNC(=O)CCn1c2ccccc2c2ccccc21,4464,11,-3.4,/,/,7,-21
COc1cccc(-c2ocnc2C(=O)Nc2ccc3c(c2)CCC3)c1,5803,3,0.2,-1,-7,8,-32
Cc1nonc1NC(=O)CSc1nnc(-c2ccoc2C)n1CC(C)C,2578,6,2.8,/,/,4,-10
COc1cccc(-c2nn(C)c3sc(C(=O)NCc4ccc(C)o4)cc23)c1,3110,-10,-2.3,/,/,-7,-22
COc1ccc(OC)c(NC(=O)COC(=O)CCNc2ccccc2OC)c1,2840,/,-2.4,0,1,-6,-21
CCCN(CC(=O)Nc1ccccc1OC)C(=O)CCC(=O)c1ccc(F)cc1,?,-8,/,/,/,/,-6
CCOc1ccc(CN(C)C(=O)CNC(=O)c2ccc3ccccc3c2)cc1OC,4121,3,-3.9,11,10,6,-14
CC(NC(=O)c1cc2c(cc1Cl)N1CCCCCC1=NS2(=O)=O)c1ccc(S(N)(=O)=O)cc1 (configuration not stated),?,3,3.0,2,4,0,-8
Cc1ccc(CNC(=O)CN(C(=O)C2(C)CC(=O)N=C3C=CC=CN32)c2ccccc2F)cc1 (configuration not stated),3599,10,4.1,-9,0,5,-16

# Next compounds follow:
SMILES,Bead autofluor,BJeLR lethal,Sa RN4220 lethal,Mtb hypoxia rep,Mtb hypoxia rep growth,Sa ugtP lethal,PrP UTR inh
Cc1ccc(NC(=O)O/N=C2\CCCCC2c2ccc([N+](=O)[O-])cc2[N+](=O)[O-])cc1 (configuration not stated),2918,8,/,/,/,/,-8
COc1ccc(C(=O)OC2C(OC)OCC(O)C2O)cc1 (configuration not stated),3746,/,-0.6,14,8,-3,-28
O=C1CN=C(Nc2cccc(C(F)(F)F)c2)N1C1CCCC1,7267,-6,-4.7,-4,-2,-8,0
O=C1C2CCCCN2C(=O)N1CCCCN1CCN(c2ccc(F)cc2)CC1 (configuration not stated),4369,-4,-1.5,-8,-5,0,-16
O=C(NN=Cc1ccccc1Cl)c1n[nH]c2c1CCCC2,/,/,10,5,5,6,/
CCCn1c(SCN2C(=O)c3ccccc3C2=O)nc2cc(Cl)ccc2c1=O,2684,6,0.2,10,3,-18,-4
O=C(Oc1cccc(-n2cnnn2)c1)c1ccccc1,4169,/,3.6,1,8,-3,-30
CCNC(=S)NCc1ccc2[nH]c(C)cc2c1,3958,-8,4.0,2,3,-1,-4
